Screening data (PubChem BioAssay)
FGF22 binding: binders of recombinant human FGF22 by thermal shift | calls only at 9.99 µM | hit rate 1.5% among 340,000 | SYPRO orange fluorescence; percent of sucrose octasulfate shift, DMSO zero | AID 651658;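 active = melting point raised past a set limit in the mean and every replicate; three in four hits are not shown here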
Target sequence (Q9HCT0 whole entry, looked up): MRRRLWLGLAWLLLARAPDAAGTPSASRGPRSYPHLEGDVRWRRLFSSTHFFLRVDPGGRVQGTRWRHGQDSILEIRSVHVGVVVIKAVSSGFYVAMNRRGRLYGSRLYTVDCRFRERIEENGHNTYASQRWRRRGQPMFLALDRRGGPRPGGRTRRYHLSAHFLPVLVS
AF4-AF9 inh: inhibitors of human MLL-AF4/AF9 interaction; AlphaScreen, biotin-AF4 peptide binding to FLAG-AF9; inhibition, % at 10 µM; hit rate 0.47% among 350,000;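 active = every replicate reaching a set inhibition limit, whatever the replicate mean, cut at about 25% in these data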;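 note: 0% = plate neutral control median and 100% = total signal loss; the record names both 10 and 1 µM as test concentration; the first replicate is given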
Target sequence (P42568 whole entry, looked up): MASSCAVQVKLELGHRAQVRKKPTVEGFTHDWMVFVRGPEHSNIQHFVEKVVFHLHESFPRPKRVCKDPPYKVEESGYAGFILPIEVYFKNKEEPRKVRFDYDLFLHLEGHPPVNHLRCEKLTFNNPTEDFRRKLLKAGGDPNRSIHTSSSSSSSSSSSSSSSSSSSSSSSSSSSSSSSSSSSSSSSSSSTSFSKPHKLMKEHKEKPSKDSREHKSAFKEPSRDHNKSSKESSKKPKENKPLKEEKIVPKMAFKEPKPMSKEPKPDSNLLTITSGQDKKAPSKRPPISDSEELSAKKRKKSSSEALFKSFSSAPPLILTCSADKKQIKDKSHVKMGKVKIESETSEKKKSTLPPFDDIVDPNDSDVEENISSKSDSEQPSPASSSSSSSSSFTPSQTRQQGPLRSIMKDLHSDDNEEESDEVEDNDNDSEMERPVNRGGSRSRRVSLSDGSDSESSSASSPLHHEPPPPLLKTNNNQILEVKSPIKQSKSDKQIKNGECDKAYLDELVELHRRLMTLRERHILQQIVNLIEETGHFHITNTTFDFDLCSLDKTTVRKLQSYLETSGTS
Active calls of the source: *; i = inactive; + = active, no number.

SMILES | FGF22 binding | AF4-AF9 inh
COc1ccccc1-c1cn(CC[C@H]2CC[C@H](NC(=O)c3ccccc3F)[C@H](CO)O2)nn1 | i | -3.1
Cc1ccc(S(=O)(=O)N(C)C[C@@H]2Oc3ccc(NS(=O)(=O)c4c(C)noc4C)cc3C(=O)N([C@@H](C)CO)C[C@H]2C)cc1 | i | -0.9
COc1ccc2c3c(n(C)c2c1)[C@@H](CO)N(C(=O)c1cnccn1)CC31CCN(C(C)=O)CC1 | i | 1.3
CC(C)NC(=O)Nc1ccc2c(c1)CC(=O)N([C@@H](C)CO)C[C@H](C)[C@H](CN(C)Cc1ccc(Oc3ccccc3)cc1)O2 | i | 6.7
Cc1noc(C)c1C(=O)N(C)C[C@@H]1OCc2ccccc2-c2ccccc2C(=O)N([C@H](C)CO)C[C@@H]1C | i | -3.4
C[C@H](CO)N1C[C@H](C)[C@@H](CN(C)Cc2ccncc2)Oc2c(NC(=O)Nc3ccc(F)cc3)cccc2C1=O | i | -0.3
C[C@H](CO)N1C[C@H](C)[C@H](CN(C)S(=O)(=O)c2ccccc2)Oc2ccc(NC(=O)c3ccncc3)cc2CC1=O | i | -0.4
CO[C@H]1CN(C)C(=O)c2ccc(NS(=O)(=O)c3cn(C)cn3)cc2OC[C@@H](C)N(C)C[C@@H]1C | i | -1.0
COc1ccc(S(=O)(=O)N(C)C[C@H]2OCCCC[C@H](C)Oc3ccc(NC(=O)Nc4ccc(F)cc4)cc3C(=O)N([C@@H](C)CO)C[C@H]2C)cc1 | i | -0.5
CNC[C@H]1OCCCC[C@@H](C)Oc2ccc(NS(C)(=O)=O)cc2C(=O)N([C@H](C)CO)C[C@H]1C | i | -3.9
Cc1noc(C)c1NC(=O)Nc1cccc2c1O[C@H](CN(C)C(=O)NC(C)C)[C@H](C)CN([C@H](C)CO)C2=O | i | -0.4
COc1cccc(CNC(=O)[C@@H]2[C@@H](CO)[C@@H]3Cn4c(ccc(-c5ccncc5)c4=O)[C@@H]3N2C)c1 | i | 0.3
C[C@@H]1CN([C@@H](C)CO)C(=O)c2cc(C#CC3(O)CCCC3)cnc2O[C@H]1CN(C)S(=O)(=O)c1ccccc1 | i | -2.6
CCS(=O)(=O)N1CC2(CN(Cc3ccc(OC)cc3)[C@H](CO)c3c2c2ccc(OC)cc2n3C)C1 | i | -0.2
C[C@@H]1CN([C@H](C)CO)S(=O)(=O)c2ccc(C3=CCCC3)cc2O[C@H]1CN(C)C(=O)c1ccc(F)cc1 | i | -0.6
O=C(c1ccc2c(c1)OCO2)N1CC2(C1)[C@H](c1ccccc1)[C@H](CO)N2C(=O)C1CCC1 | i | 1.6
C[C@@H]1CN([C@@H](C)CO)C(=O)c2cc(-c3cccc(C(=O)N(C)C)c3)cnc2O[C@@H]1CN(C)S(=O)(=O)c1ccc(F)cc1 | i | -8.0
Cc1noc(C)c1S(=O)(=O)Nc1ccc2c(c1)C(=O)N([C@@H](C)CO)C[C@H](C)[C@H](CN(C)C(=O)CCC(F)(F)F)OCCCC[C@H](C)O2 | i | 1.2
COc1ccc(-c2cnc3c(c2)C(=O)N([C@H](C)CO)C[C@H](C)[C@H](CN(C)C(=O)Cc2ccccc2)O3)cc1 | i | -1.8
C[C@H](CO)N1C[C@H](C)[C@H](CN(C)C)Oc2c(NC(=O)c3ccncc3)cccc2C1=O | i | -1.1
CCNC(=O)C[C@H]1CC[C@H]2[C@H](COc3ccc(NC(=O)c4ccc5c(c4)OCO5)cc3C(=O)N2C)O1 | i | -1.2
COc1ccc(NC(=O)N2C[C@H](O)COC[C@@H]3O[C@@H](CC(=O)N4CCOCC4)CC[C@H]32)cc1 | i | -2.4
CN(C)CC(=O)N1[C@H](C#N)[C@H](c2ccc(C#CC3CCCCC3)cc2)[C@@H]1CO | i | -2.3
CCCNC(=O)N1C[C@@H]2[C@H](c3ccccc31)[C@H](CO)N2C(=O)Nc1ccccc1 | i | -0.5
C[C@@H]1CN([C@@H](C)CO)C(=O)c2cc(NC(=O)CCN3CCOCC3)ccc2O[C@H]1CN(C)C(=O)Nc1ccccc1 | i | -2.9
CN(C)CCCNC(=O)C[C@@H]1CC[C@@H]2[C@H](COc3ccc(NC(=O)c4cccc(F)c4)cc3C(=O)N2C)O1 | i | 0.1
C[C@@H]1CCCCO[C@H](CN(C)S(C)(=O)=O)[C@@H](C)CN([C@H](C)CO)C(=O)c2cc(NC(=O)Cc3ccccc3)ccc2O1 | i | 3.1
CNC[C@@H]1OCCCC[C@@H](C)Oc2ccc(N)cc2C(=O)N([C@H](C)CO)C[C@H]1C | i | 9.8
COc1cccc(-c2ccc3c(c2)O[C@@H](CN(C)Cc2cncnc2)[C@H](C)CN([C@@H](C)CO)S3(=O)=O)c1 | i | -3.9
COc1ccc(NC(=O)Nc2ccc3c(c2)C(=O)N([C@@H](C)CO)C[C@@H](C)[C@@H](CN(C)C(=O)Nc2ccccc2)OCCCC[C@@H](C)O3)cc1 | i | -7.3
COc1ccccc1-c1cn(CC[C@H]2CC[C@H](NS(=O)(=O)c3ccccc3C)[C@H](CO)O2)nn1 | i | -4.7
O=C(CN1CCOCC1)N[C@H]1CC[C@H](CCNC(=O)C2CCCCC2)O[C@@H]1CO | i | 0.1
CCNC(=O)C[C@@H]1CC[C@H]2[C@H](COc3ccc(NC(=O)NC(C)C)cc3C(=O)N2C)O1 | i | -0.9
C[C@@H]1CN([C@H](C)CO)S(=O)(=O)c2ccc(C3=CCCC3)cc2O[C@@H]1CN(C)C(=O)Nc1ccc2c(c1)OCO2 | + | 3.9
O=C(C[C@H]1CC[C@H]2[C@@H](COC[C@H](O)CN2CC2CC2)O1)NCc1ccc(Cl)cc1 | i | 0.6
CN1C(=O)c2cc(NS(=O)(=O)c3ccc(F)cc3)ccc2OC[C@H]2O[C@H](CC(=O)NCC(F)(F)F)CC[C@H]21 | i | 0.2
COc1ccc(CN(C)C[C@H]2Oc3ccc(NC(=O)Cc4cn(C)c5ccccc45)cc3C(=O)N([C@H](C)CO)C[C@@H]2C)cc1 | i | 11.2
C[C@H]1CN([C@@H](C)CO)C(=O)c2cccc(NC(=O)C3CCOCC3)c2O[C@H]1CN(C)C(=O)NC1CCCCC1 | i | 0.3
CO[C@@H]1CN(C)C(=O)c2ccc(NC(=O)c3ccccc3)cc2OC[C@@H](C)N(CC2CC2)C[C@H]1C | i | -2.6
O=C(C[C@@H]1C[C@@H]2c3cc(NC(=O)C4CCC4)ccc3O[C@@H]2[C@H](CO)O1)NCc1ccc2c(c1)OCO2 | i | -0.4
CCN=C1NC(c2cccc(Cl)c2)C(C(=O)OC)=C(C)N1Cc1ccccc1C(F)(F)F (stereo not given) | i | 3.1
O=C(N[C@@H]1CC[C@@H](CC(=O)N2CCCCC2)O[C@H]1CO)c1ccc2c(c1)OCO2 | i | -0.6
CC(C)NC(=O)N(C)C[C@@H]1Oc2ncc(C#CC3CCCC3)cc2C(=O)N([C@@H](C)CO)C[C@H]1C | i | -2.7
COc1ccc(S(=O)(=O)N(C)C[C@@H]2Oc3c(NC(=O)C4CCOCC4)cccc3C(=O)N([C@H](C)CO)C[C@@H]2C)cc1 | i | -2.9
Cc1ccc(S(=O)(=O)Nc2ccc3c(c2)C(=O)N([C@H](C)CO)C[C@@H](C)[C@H](CN(C)C)O3)cc1 | i | -8.4
C[C@@H]1CN([C@@H](C)CO)C(=O)c2c(c3ccccc3n2C)-c2ccccc2CO[C@@H]1CN(C)S(=O)(=O)c1ccc(F)cc1 | i | 7.2
C[C@@H]1CN([C@H](C)CO)C(=O)c2cc(Br)cnc2O[C@@H]1CN(C)S(=O)(=O)c1ccc(F)cc1 | i | 0.1
C[C@@H]1CN([C@H](C)CO)C(=O)c2cc(NC(=O)Cc3cn(C)c4ccccc34)ccc2O[C@@H]1CN(C)Cc1ccc(Cl)c(Cl)c1 | i | 2.0
CC(C)(C)S(=O)(=O)N1C[C@@H]2CC(=O)C(CCO)=C2[C@H]1CCO | i | -0.5
C[C@H](CO)N1C[C@H](C)[C@H](CN(C)Cc2cccnc2)OCc2ccccc2-c2c(n(C)c3ccccc23)C1=O | i | -3.0

Other results.
SMILES | FGF22 binding | AF4-AF9 inh
CC(C)NC(=O)N(C)C[C@H]1Oc2c(NC(=O)c3ccc(-c4nccs4)cc3)cccc2C(=O)N([C@@H](C)CO)C[C@@H]1C | i | -12.5
COc1ccc(NC(=O)Nc2ccc3c(c2)C(=O)N([C@@H](C)CO)C[C@@H](C)[C@H](CN(C)Cc2ccc4c(c2)OCO4)OCCCC[C@@H](C)O3)cc1 | i | 16.0
COc1ccc(NC(=O)Nc2ccc3c(c2)C(=O)N([C@H](C)CO)C[C@H](C)[C@@H](CN(C)S(=O)(=O)c2ccc(Cl)cc2)O3)cc1 | i | -1.0
COc1ccc(NC(=O)N(C)C[C@H]2Oc3ccc(NC(=O)Nc4cccc5ccccc45)cc3CC(=O)N([C@H](C)CO)C[C@H]2C)cc1 | i | -3.5
C[C@@H]1CN([C@H](C)CO)C(=O)Cc2cc(N(C)C)ccc2O[C@H]1CN(C)S(=O)(=O)c1ccc(F)cc1 | i | 0.6
COc1ccc(CN(C)C[C@H]2OCCCC[C@H](C)Oc3ccc(NC(=O)Nc4c(C)noc4C)cc3C(=O)N([C@@H](C)CO)C[C@H]2C)cc1 | i | -1.3
CC(=O)N(C)C[C@@H]1Oc2ncc(-c3cccc(F)c3)cc2C(=O)N([C@@H](C)CO)C[C@H]1C | i | -3.5
COc1ccc2c3c(n(C)c2c1)[C@H](CO)N(C(=O)c1ccccc1)CC31CCN(C)CC1 | i | 3.0
Cc1noc(C)c1S(=O)(=O)Nc1ccc2c(c1)C(=O)N([C@H](C)CO)C[C@@H](C)[C@H](CN(C)Cc1ccc(C(=O)Nc3ccccc3N)cc1)O2 | i | 1.2
Cc1ccc(S(=O)(=O)N(C)C[C@@H]2OCCCC[C@H](C)Oc3ccc(NC(=O)NC4CCCCC4)cc3C(=O)N([C@H](C)CO)C[C@@H]2C)cc1 | i | -0.6

Copied from the listing (three entries):
SMILES | FGF22 binding | AF4-AF9 inh
COc1ccc2c3c(n(C)c2c1)[C@H](CO)N(C(=O)c1ccccc1)CC31CCN(C)CC1 | i | 3.0
Cc1noc(C)c1S(=O)(=O)Nc1ccc2c(c1)C(=O)N([C@H](C)CO)C[C@@H](C)[C@H](CN(C)Cc1ccc(C(=O)Nc3ccccc3N)cc1)O2 | i | 1.2
Cc1ccc(S(=O)(=O)N(C)C[C@@H]2OCCCC[C@H](C)Oc3ccc(NC(=O)NC4CCCCC4)cc3C(=O)N([C@H](C)CO)C[C@@H]2C)cc1 | i | -0.6

Other compounds follow.
SMILES | FGF22 binding | AF4-AF9 inh
CO[C@H](CN(C)C(=O)c1cnccn1)[C@H](C)CN([C@@H](C)CO)S(=O)(=O)c1ccc(C)cc1 | i | 0.2
O=C(C[C@H]1CC[C@@H]2[C@H](COC[C@@H](O)CN2C(=O)c2ccncc2)O1)Nc1ccc(-c2ccccc2)cc1 | i | 1.9
O=C(C[C@@H]1C=C[C@@H](NC(=O)Nc2ccc3c(c2)OCO3)[C@H](CO)O1)NCCCN1CCOCC1 | i | -0.9
C[C@H]1CN([C@@H](C)CO)C(=O)c2cc(NC(=O)Nc3ccc(F)cc3)ccc2O[C@@H]1CN(C)Cc1ccc(C(F)(F)F)cc1 | i | -3.5
CN(C)C(=O)c1ccc(-c2ccc([C@H]3[C@H](CO)N4C(=O)CN(C(=O)CC5CC5)C[C@@H]34)cc2)cc1 | i | -3.7
NCC[C@@H]1CC[C@@H](NS(=O)(=O)c2ccc(Cl)cc2)[C@H](CO)O1 | i | 3.1
C[C@H]1CN([C@@H](C)CO)C(=O)Cc2cc(NC(=O)Nc3cccc4ccccc34)ccc2O[C@@H]1CN(C)Cc1ccc(-c2ccccc2)cc1 | i | -23.7
CC(C)NC(=O)Nc1ccc2c(c1)CC(=O)N([C@@H](C)CO)C[C@H](C)[C@H](CN(C)Cc1ccc(C(=O)O)cc1)O2 | i | -1.6
N#C[C@H]1[C@H](c2ccc(-c3ccccc3F)cc2)[C@@H](CO)N1C(=O)C1CC1 | i | -0.9
Cc1ccc(S(=O)(=O)N(C)C[C@H]2OCCCC[C@@H](C)Oc3ccc(NS(=O)(=O)c4c(C)noc4C)cc3C(=O)N([C@H](C)CO)C[C@H]2C)cc1 | i | 1.1

Single records, from the list above.
Cc1noc(C)c1S(=O)(=O)Nc1ccc2c(c1)C(=O)N([C@H](C)CO)C[C@@H](C)[C@H](CN(C)Cc1ccc(C(=O)Nc3ccccc3N)cc1)O2 is listed as FGF22 binding = i; AF4-AF9 inh = 1.2
CC(C)NC(=O)N(C)C[C@@H]1Oc2ncc(C#CC3CCCC3)cc2C(=O)N([C@@H](C)CO)C[C@H]1C is listed as FGF22 binding = i; AF4-AF9 inh = -2.7

Remaining list, next part:
SMILES | FGF22 binding | AF4-AF9 inh
COc1ccc(S(=O)(=O)Nc2ccc3c(c2)CC(=O)N([C@@H](C)CO)C[C@@H](C)[C@@H](CN(C)C(=O)Nc2c(C)noc2C)O3)cc1 | i | -4.6
Cc1ccc(S(=O)(=O)N2C[C@@H](O)COC[C@H]3O[C@@H](CC(=O)N[C@@H]4CCN(Cc5ccccc5)C4)CC[C@@H]32)cc1 | i | 4.3
C[C@H](CO)N1C[C@H](C)[C@@H](CN(C)C(=O)CC2CC2)Oc2ncc(C#CCC3CCCC3)cc2C1=O | i | -0.9
C[C@H](CO)N1C[C@H](C)[C@@H](CN(C)S(=O)(=O)c2ccccc2F)Oc2ncc(C#Cc3ccncc3)cc2C1=O | i | -2.6

The list is partial. The share of hits here may be higher or lower than overall.
